Screening results from PubChem BioAssay.
AID504770: growth inhibitors of E. coli YBA685 in a screen for V. cholerae RctB (chromosome II replication) inhibitors; E. coli YBA685 rctB-dependent plasmid, OD600 growth, 3 h; active compounds read low; z-score (no concentration beside the values); 0.27% of 130,000 active; AID 504770;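 active = z-score under -2 on both plates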;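 also: wells of about 30 µL received 100 nL stock; score is relative to mean and SD of the test wells; the first replicate is given; strong numbers were not always called active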
CapD inh: CapD enzyme inhibition; AID 492967; purified CapD enzyme, fluorescence intensity read-out; active compounds read low; some hits fall short of the stated cut; z-score (concentration not given with the values); 0.23% of 140,000 active;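 active = z-score under -4 in either of two replicates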;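 also: stock transfer was 100 nL into about 40 µL; score is relative to mean and spread of the plate; one replicate is shown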
An asterisk follows results filed as active; x = no result given; & = joins results of further samples.

SMILES,AID504770,CapD inh
COc1ccc(CCNS(=O)(=O)c2ccc(F)c(C(=O)Nc3cc(Cl)ccc3Cl)c2)cc1OC,x,-0.465
CO/C([O-])=N/c1c[n+](-c2ccc(C)cc2)no1,-0.65,-0.735
Cc1nc(N)[nH]c(=O)c1Br,-0.05,0.915
O=C1C=C(Nc2ncn[nH]2)CC(c2cccs2)C1 (centres undefined),-1.35,x
CC(C)N(CCC#N)C(=S)Nc1ccc(S(=O)(=O)N2CCCCC2)cc1,-0.1,0.77
CCC(O)c1ccc2c(=O)c(-c3ccccc3F)coc2c1 (centres undefined),-0.1,0.345
O=C1Cc2ccccc2C(=O)N1c1ccc(Br)cn1,1.75,x
CC(C)n1cnc2cc(NCc3ccc(Br)cc3)ccc21,-1.2,-0.175
CS(=O)(=O)c1ccccc1-c1nnc(NC(=O)C2CCCCC2)o1,-0.7,x
CCOC(=O)N1CCN(C(=O)CCc2nc3ccccc3[nH]2)CC1,1.65,-0.785
CCOc1cc(-c2nc3sc4c(c3c(=O)[nH]2)CCCC4)ccc1OCCOc1ccccc1OC,x,0.78
CS(=O)(=O)N(Cc1ccccc1)c1ccccc1C(=O)Nc1cccc(Br)c1,-0.45,1.02
Brc1ccc(N=Cc2ccc3c(c2)OCCO3)cc1,0.1,-0.22
COc1ccc(-n2c(-c3ccc(Cl)cc3)cn3c4c(=O)n(C)c(=O)n(C)c4nc23)cc1,x,-1.05
CCOC(=O)c1cncc(C#CCOC(=O)Nc2cc(Cl)cc(Cl)c2)c1,0.9,0.455
CCOc1ccc(NC(=O)c2c(NC(=O)COc3ccccc3)sc3c2CCC3)cc1,x,6.91
CN1C(=O)/C(=C(/C#N)C(N)=O)c2ccccc21,-1.35,-2.66
COc1cc2c3c(c1O)-c1c(cccc1OC)CC3N(C)CC2 (centres undefined),0.2,2.67
O=c1[nH]c(=S)[nH]c(O)c1N=Nc1ccc(S(=O)(=O)N2CCc3ccccc32)cc1,0.95,x
Cc1ccc2nc(C(C)O)[nH]c2c1 (centres undefined),0.75,-0.335
CSc1ncccc1C(=O)OCc1c(C)noc1C,-0.7,x
CC(C)c1ccc(N(CCc2ccccn2)C(=O)C(C)(C)C)cc1,x,0.23
O=C(CSc1ncnc2sc3c(c12)CCCC3)Nc1ccc2c(c1)OCCO2,x,-0.865
Cc1ccc(C=C2C(=O)OC(C)(C(C)(C)C)OC2=O)o1 (centres undefined),1.5,-0.365
CCOC(=O)c1oc2cc(OCc3ccc(C(=O)OC)o3)ccc2c(=O)c1-c1ccc(C(=O)OC)o1,x,-0.81
CCOC(=O)c1c(S(=O)(=O)N(C)c2ccc(C)cc2)c(C)n(C)c1C,-0.15,-0.135
O=C1c2ccccc2C(=O)N1CC1NCCc2ccccc21 (centres undefined),0.75,x
CCOc1cccc(C(=O)NNC(=O)OC/C=C/COCc2ccccc2)c1,x,-0.17
O=C(O)c1ccc(COCOCc2ccc(C(=O)O)o2)o1,x,-0.005
Cc1ccc(N2C(=O)C3C4C=CC(CNC(=O)OCc5ccccc5)(O4)C3C2=O)cc1 (centres undefined),0.1,x
CCOC(=O)Cc1csc(Nc2ccc(Cl)cc2)n1,0.35,-0.615
Cc1cc(C)c(S(=O)(=O)N2CC(C)OC(C)C2)c(C)c1 (centres undefined),-0.75,0.18
CCOc1ccc(-n2nc(C(=O)NC(C)C)c3ccccc3c2=O)cc1,0.95,0.59
Cn1c(=O)n(Cc2ccc(Cl)cc2)c2ccccc21,0.8,0.255
Cc1cc(C)c(NC(=O)c2cn3c4c(c(N5CCN(C)CC5)c(F)cc4c2=O)OCC3C)c(C)c1 (centres undefined),-1.8,x
COC(=O)c1sccc1N,-1.35,0.285
C=C(C)C(=O)Oc1cccc(N2C(=O)C3C4C=CC(C4)C3C2=O)c1 (centres undefined),2.5,-1.38
O=C(CC12CC3CC(CC(C3)C1)C2)NCc1cccc(Cl)c1,x,-0.195
O=C(NCCOc1ccccc1)OCCCCCc1ccccc1,x,-1.1
Cc1ccc(-c2nc3nc(-c4ccc(Br)cc4)cn3nc2-c2ccc(C)cc2)cc1,x,0.05
COc1ccc(O)c(C=Nc2ccc3c(c2)OCO3)c1,-0.45,x
Nc1cc2ccccc2cc1C(=O)O,-0.45,x
O=C(O)c1ccc(NC(NC(=O)c2ccco2)C(=O)c2ccccc2)cc1 (centres undefined),-0.7,x
COc1ccc(OC)c(C2CC(c3ccc(Br)cc3)=NN2C(=O)CCC(=O)O)c1 (centres undefined),x,0.135
CCN(CC)c1ccc(NC(=O)C(C)(C)C)cc1,-0.15,0.295
FC(F)(F)c1ccc(-c2[nH]ncc2-c2ccncc2)cc1,x,-0.06
O=C(c1ccco1)N1CCN(C(=O)C2CCN(c3nc4ccccc4n3Cc3ccc(F)cc3)CC2)CC1,-1,0.495
CCCNc1ncnc2c1c(-c1ccccc1)cn2-c1cccc(C)c1,x,-0.23
Cn1ccsc1=NC(=O)/C=C/c1ccccc1F,1.25,x
Cc1ccc(NS(C)(=O)=O)cc1NC(=S)Nc1cccc(C(F)(F)F)c1,x,-0.255

A different layout for part of the listing above:
canonical_smiles: O=C(c1ccco1)N1CCN(C(=O)C2CCN(c3nc4ccccc4n3Cc3ccc(F)cc3)CC2)CC1
  AID504770 = -1
  CapD inh = 0.495

canonical_smiles: CCCNc1ncnc2c1c(-c1ccccc1)cn2-c1cccc(C)c1
  AID504770 = x
  CapD inh = -0.23

canonical_smiles: Cn1ccsc1=NC(=O)/C=C/c1ccccc1F
  AID504770 = 1.25
  CapD inh = x

canonical_smiles: Cc1ccc(NS(C)(=O)=O)cc1NC(=S)Nc1cccc(C(F)(F)F)c1
  AID504770 = x
  CapD inh = -0.255

Structures listed so far that have a COOH group, in the order listed:
SMILES,AID504770,CapD inh
O=C(O)c1ccc(COCOCc2ccc(C(=O)O)o2)o1,x,-0.005
Nc1cc2ccccc2cc1C(=O)O,-0.45,x
O=C(O)c1ccc(NC(NC(=O)c2ccco2)C(=O)c2ccccc2)cc1 (centres undefined),-0.7,x
COc1ccc(OC)c(C2CC(c3ccc(Br)cc3)=NN2C(=O)CCC(=O)O)c1 (centres undefined),x,0.135

Later entries
SMILES,AID504770,CapD inh
O=CN1CCN(C(=O)c2ccccc2)CC1,0.5,1.04
Nc1c(C(=O)c2ccc(Br)cc2)oc2ccccc12,x,-0.665
CCCOc1ccc(C2C3CN(C)CC=C3C(C#N)=C(N)C2(C#N)C#N)cc1OCC (centres undefined),x,-0.165
O=C(Nc1cc(Oc2ccccc2)cc([N+](=O)[O-])c1)c1cc2n(n1)C(C(F)(F)F)CC(c1cccs1)N2 (centres undefined),x,0.085
CCOc1ccc(CNC2CCCc3ccccc32)cc1 (centres undefined),-0.6,0.015
O=C(Cc1ccccc1)Nc1ccccc1CO,0.75,0.33
COC(=O)CSc1ncnc2c1cnn2-c1ccccc1,-0.45,0.28
O=C1/C(=C/c2ccccc2)Oc2c1ccc(O)c2CN1CCOCC1,0.65,x
C1=Cc2nonc2C2C=C(c3ccccc3)N=C12 (centres undefined),-0.4,-0.44
CCOC(=O)c1cn(Cc2ccc(Cl)cc2Cl)c2cc(C)nn2c1=O,2.1,6.81
CCOC(=O)C(=NCc1ccco1)NNc1cccc(C(F)(F)F)c1,-0.5,x
CC1(C)CC(N=Cc2ccccc2O)CC(C)(C)N1,-0.3,-0.17
N#Cc1ccccc1NC(=O)COC(=O)c1ccccc1,0,-0.125
NCC12CC3CC(CC(C3)C1)C2,-0.8,0.2
O=C(NC1CC1)c1cc(S(=O)(=O)N2CCCCC2)ccc1N1CCOCC1,2.3,x
CSCCC(=O)Nc1cc(S(C)(=O)=O)ccc1Cl,-0.75,x
N=C1c2ccccc2CN1c1ccc2c(c1)OCCO2,0.8,0.225
O=C(NCc1cccnc1)c1cnn2c(C(F)F)cc(-c3ccccc3)nc12,-0.1,x
CC1=C(C(=O)OC2CCCCCCC2)C(c2cccc(Br)c2)NC(=O)N1 (centres undefined),x,0.61
Cc1ccc(NC(=O)C(=O)NCCN2CCN(C(=O)c3cccc(C)c3)CC2)cc1,x,-0.03
CCC(CC)C(=O)Nc1cccc(C(=O)NC(C)(C)C)c1,-0.75,-0.14
Cc1ccc(C)n1-c1sc2c(c1C(=O)NNC(=O)c1ccc(Cl)cc1)CCCC2,x,-0.105
O=C1c2cccc3cccc(c23)C(=O)N1CCN1CCN(S(=O)(=O)c2ccc(F)cc2)CC1,x,0.64
CN1CCSc2ccc(C(=O)NCc3ccc4c(c3)OCO4)cc21,-1.55,90.8
CC1C=CCC2C(=O)N(c3cccc(O)c3)C(=O)C12 (centres undefined),-0.45,-2.02

(further entries)
Fields – AID504770 | CapD inh
> COc1ccc(-c2noc(CCC(=O)NC(C)C)n2)cc1OC
    -0.45 | 0.59
> O=C(O)CC(C(=O)O)N1C(=O)/C(=C/c2ccc(-c3ccc(Br)cc3)o2)SC1=S (centres undefined)
    x | -4.46*
> CC(C)(C)c1ccc(OCCC(=O)Nc2ccc(N3CCOCC3)cc2)cc1
    0 | -0.145
> O/N=C/c1ccc2ccccc2c1
    0 | 13
> CNC(=O)CN(c1ccccc1)S(=O)(=O)c1ccc(OC)cc1
    0.5 | 0.255
> O=C(Nc1ccc(N2CCCCC2)cc1)c1ccc(Cl)cc1
    -1.45 | -0.085
> COC(=O)C1=CN(C2CC2)C=C(C(=O)OC)C1c1ccc(Cl)cc1
    1 | 22.4
> CCOc1cc(C(=O)Nc2cc(-c3nc4cc(C)ccc4o3)ccc2Cl)cc(OCC)c1OCC
    x | 0.16
> CCc1ccc2nc(N3CCC(C(=O)NC4CCCCC4)CC3)sc2c1
    -0.4 | -0.15
> CCCc1ccc(OCC(=O)Nc2sc3c(c2C#N)CCCCC3)cc1
    x | -0.25
> Cn1cc(Cl)c(C(=O)OCC(=O)NCc2ccccc2)n1
    -0.35 | x
> COc1cccc(/C=C2\CCCCC2=O)c1
    -0.05 | x
> CC(=O)Nc1ccc(OC(C)=O)cc1
    x | 0.515
> N#Cc1ccccc1S(=O)(=O)Nc1cccc(-c2nnc3n2CCCCC3)c1
    -0.05 | x
> CCC(CC)n1c(COc2ccccc2Cl)nnc1SC(C)C#N (centres undefined)
    -2.05 | x
> CCOC(=O)CNc1ccc(C(=O)O)cc1
    -0.05 | 1.91
> CCOc1ccc(OCC)c(NC(=O)C2COc3ccccc3O2)c1 (centres undefined)
    -0.1 | 0.71
> COc1ccc(CC2C(=O)N(C)C(=O)N(C)C2=O)cc1
    -1.3 | x
> CN(C)/C=C1\C=C(c2ccccc2)OC1=O
    -0.55 | -2.82
> CC1=C(C(=O)OCCc2ccccc2)C(c2coc3ccc(Cl)cc3c2=O)C2=C(CC(C)(C)CC2=O)N1 (centres undefined)
    x | 0.64
> CC1=CCC2C(=O)N(c3cccc(C(=O)NCc4ccccc4)c3)C(=O)C2C1 (centres undefined)
    0.3 | -0.22
> CN(Cc1nc2ccccc2c(=O)n1CC(N)=O)C1CCCCC1
    -0.7 | x
> CO/N=C(/CCS(=O)(=O)c1ccc(C)cc1)c1ccc(Cl)cc1
    x | 0.26
> CC(C)(C)S(=O)(=O)c1ccccc1C(=O)O
    -0.25 | x
> CCN1CCCC1CNC(=O)c1cc2nc(-c3ccc(OC)c(OC)c3)cc(C(F)(F)F)n2n1 (centres undefined)
    x | -0.815
> COc1cc(C(=O)OC2CC3CCC2(C)C3(C)C)ccc1O (centres undefined)
    -0.8 | 0.12
> CCOC(=O)c1oc2ccc(Br)cc2c1COC(=O)CNC(=O)c1cccc(OC)c1
    0.1 | x
> O=C(O)C1CCCN1C(=O)OCC1c2ccccc2-c2ccccc21 (centres undefined)
    -0.55 | 0.795
> CC1CCc2c(sc3[nH]c(=O)n4nc(-c5cccc(S(=O)(=O)N6CCOCC6)c5)nc4c23)C1 (centres undefined)
    -0.55 | x
> O=C(NCc1ccc(F)cc1)C1CCC(=O)N1CCc1ccccc1 (centres undefined)
    -0.65 | 0.365
> C=CC(=O)N1CCN(C(=O)C=C)CC1
    -1.45 | 0.075
> Cc1csc(NC(=O)c2ccccc2)n1
    -0.9&-0.1 | -0.885&-0.33
> COc1ccc(NC(=O)C(=S)N2CCCCC2)cc1
    -0.45 | -0.195
> COc1ccccc1CN1CC(C(=O)NCc2cccnc2)CC1=O (centres undefined)
    0.45 | -0.105
> O=C(c1ccccc1)c1cc2ccccc2o1
    -0.7 | -1.76
> O=C(N/N=C/c1ccc(C(F)(F)F)cc1)c1ccccn1
    -0.75 | -0.05
> CCOC(=O)c1[nH]c2ccc(OC)cc2c1NC(=O)CNc1nccs1
    x | 21.5
> Brc1ccc(C2C3CC=CC3c3c4c(cc5ccccc35)C3C=CCC3CN42)cc1 (centres undefined)
    x | -0.02
> CS(=O)(=O)NCC(c1ccc2c(c1)OCO2)N1CCN(c2ccccc2)CC1 (centres undefined)
    -0.7 | x
> O=C(C1CCCN(Cc2cccs2)C1)N1CCCCCC1 (centres undefined)
    0.4 | -0.14
> NC(=O)c1cn(C2CCCCC2)c2ccccc2c1=O
    0.3 | -0.22
> COc1ccc(C2CC(=O)C3=C(C2)Nc2ccccc2NC3c2cccc(C(F)(F)F)c2)cc1 (centres undefined)
    x | -1.58
> O=C(c1cn[nH]c1C1CCNCC1)N1CCN(c2ccccc2)CC1
    -0.55 | 0.58
> N#CCC(=O)c1c[nH]c2ccccc12
    0.75 | x
> O=[N+]([O-])c1ccc(C2CCCC/C2=N/OCc2ccccc2F)c([N+](=O)[O-])c1 (centres undefined)
    x | -0.655
> OC(CN1CCCC1)c1ccccc1 (centres undefined)
    -0.95 | 0.095
> CN(CCCN1C(=O)c2ccccc2C1=O)CCCN1C(=O)c2ccccc2C1=O
    -0.55 | x
> CCc1ccccc1NC(=O)c1noc2c1CCc1ccccc1-2
    -0.1 | 0.685
> CCOC(=O)C1=C(C(=O)OCC)SC(=C2C(=S)C(C)(C)N(C(=O)Cc3ccccc3)c3ccc(OCC)cc32)S1
    x | 0.83
> COC(=O)COc1ccc(/C=C2\C(=O)NC(=S)N(c3ccc(Cl)cc3)C2=O)cc1OC
    x | -0.785
